High-throughput results from PubChem BioAssay.
TRPML1 agonist – human mucolipin-1 channel agonism | TRPML1-expressing cells, Ca2+ dye fluorescence, FDSS; host cell line not named in the record; reference of the full effect not given here | AID 624414 | Q9GZU1 | activation, % (no concentration beside the values) | 410,000 compounds, 0.12% hits; in the data active = activation above about 50%; inconclusive = about 30% to 50%; inactive = below about 30%; note: 0% is about no effect; the text of the record puts the active cut at 80%
Target sequence (Q9GZU1 whole entry, looked up): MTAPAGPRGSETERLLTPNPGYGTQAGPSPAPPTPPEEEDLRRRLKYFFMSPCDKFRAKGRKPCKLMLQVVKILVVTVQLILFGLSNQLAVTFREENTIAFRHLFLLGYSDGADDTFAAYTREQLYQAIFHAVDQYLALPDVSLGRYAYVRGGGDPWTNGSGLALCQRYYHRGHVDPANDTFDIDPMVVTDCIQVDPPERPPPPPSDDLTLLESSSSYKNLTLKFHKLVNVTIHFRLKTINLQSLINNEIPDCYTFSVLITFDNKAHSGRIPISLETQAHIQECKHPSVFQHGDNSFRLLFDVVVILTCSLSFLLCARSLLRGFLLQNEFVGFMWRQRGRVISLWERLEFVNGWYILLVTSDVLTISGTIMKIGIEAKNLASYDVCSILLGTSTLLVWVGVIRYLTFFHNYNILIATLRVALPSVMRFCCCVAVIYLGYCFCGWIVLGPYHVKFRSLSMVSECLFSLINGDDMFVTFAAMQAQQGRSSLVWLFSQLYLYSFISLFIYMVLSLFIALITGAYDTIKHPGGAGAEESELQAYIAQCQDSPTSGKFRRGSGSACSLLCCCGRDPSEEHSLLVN
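Tetracycline-induced TRPML1-DL cells are seeded and incubated overnight before loading with a no-wash Ca2+ dye and quencher. Agonist activity is taken from the 110 s fluorescence read following compound pin-transfer on an FDSS, before EC80 54-4 challenge.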
ClpP mod – qHTS Assay for Activators of ClpP; ATP-dependent Clp protease proteolytic subunit (Bacillus subtilis (strain 168)), P80244; purified B. subtilis ClpP, FRET peptide cleavage, 20 min; Potency, µM (doses to about 57.5 µM), for the others: at the highest dose activity change, negative = active; 340,000 compounds, 1.9% hits; AID 651965, 2013; active = well fitted falling curve with a large enough effect; inconclusive = small, poorly fitted or top-dose-only effect; inactive = no such curve, though single readings can be large or run the other way; note: potency is the fitted concentration of half-maximal effect; the source files actives as falling curves though it sought activators and does not explain the sign; nearly all actives have a fitted effect of over 65% in size; many hits overshoot -100%
Target sequence (P80244 whole entry, looked up): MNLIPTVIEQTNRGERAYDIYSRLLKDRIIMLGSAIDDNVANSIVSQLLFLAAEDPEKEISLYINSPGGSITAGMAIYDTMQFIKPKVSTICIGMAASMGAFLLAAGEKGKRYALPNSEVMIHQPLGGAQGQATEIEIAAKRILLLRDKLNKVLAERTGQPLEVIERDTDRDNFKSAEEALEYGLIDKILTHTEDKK
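ClpP 10 microg/mL final, pH 8 Tris/KCl buffer with BSA, glycerol, Tween-20; compound pinned in; FRET-FV substrate; RT 20 min; Ex320/Em430; ΔFRET vs ADEP 5.8 microM, DMSO, no enzyme.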
TRPML1 blocker – blocks the human TRPML1 channel. Q9GZU1. TRPML1-inducible cells, Ca2+ dye fluorescence, FDSS; stronger effect = lower value; inhibition of EC80 agonist-evoked calcium signal. activity change, negative = inhibition, % (no concentration beside the values). 390,000 compounds, 0.02% hits; in the data active means activity change below about -50%; inconclusive means about -30% to -50%; inactive means above about -30%;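 note: stimulus is agonist 54-4 at its EC80 concentration; % is set by controls: 0 for no effect and ±100 for the full control effect; compound concentration not given in the record; the text of the record puts the active cut at -80%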
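TRPML1-DL cells, Tet-induced overnight (~16 h, 37 °C) at 1,500 cells/well, were loaded with Ca8 no-wash dye plus quencher for 45-90 min at room temperature. Compounds were pinned during FDSS kinetic reading; agonist 54-4 at EC80 (4 uM final) then added.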
gsp agonist – agonists of gsp mutant (McCune-Albright syndrome); gsp mutant cells, cAMP HTRF, 30 min; control for the full effect not named in the record; Potency, µM (titrated, usually from 76.9 µM), for inactives: at the top dose activation (cAMP increase), most hits filed as activators; 340,000 compounds, 0.13% hits; AID 624287; active = well fitted activation curve with a large enough effect; inconclusive = small, poorly fitted or top-dose-only effect, or another doubt; inactive = no such curve, though single readings can be large or run the other way; cell line not stated here;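 note: phosphodiesterase inhibitor Ro 20-1724 added with compounds to block cAMP breakdown; potency is the fitted concentration of half-maximal effect; nearly all actives have a fitted effect of over 60% in size; about a fifth of the inactives were tested at one dose only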
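Cells in DMEM/10% FBS with G418 were pretreated with compounds in DMSO plus […] (300 uM stock) for 30 min at 37C. cAMP was measured by HTRF (cAMP-d2 plus anti-cAMP antibody-K) after 30 min at room temperature.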
gsp antagonist – gsp mutant antagonism; gsp-mutant cells, cAMP HTRF, 30 min; control for the full effect not named in the record; Potency, µM (series often up to 76.9 µM), for inactives: at the highest dose activity change, negative = inhibition, hits mostly inhibitors; 340,000 compounds, 0.4% hits; AID 624288; active = falling curve of any shape with a large fitted effect; inconclusive = falling curve, mostly with a smaller effect; inactive = flat or rising curve; cell line not stated here;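 note: intracellular cAMP measured with PDE inhibitor Ro 20-1724 present during compound exposure; potency is the fitted concentration of half-maximal effect; % is set by controls: 0 for no effect and ±100 for the full control effect; nearly all actives have a fitted effect of over 65% in size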
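HTRF cAMP measurement after 30 min RT detection following 30 min, 37C compound treatment alongside […] (added as 300 uM solution) in G418-selected cells seeded at 2000/well and grown 16–24 h.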
Menin-MLL FL inh – menin-MLL binding inhibition, fluorescein peptide | Fluorescence polarization, fluorescein-MLL peptide displacement from menin | FP activity change, % at 61.4 µM | 290,000 tested, under 10 active | AID 1766; inconclusive = falling polarisation curve, or a change in total fluorescence; inactive = total fluorescence flat and polarisation flat or rising; no compound was filed as active; the % refers to the polarisation; negative = inhibition;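 note: % of control where 0% means no effect; inhibitors lower the polarisation; unlabelled MLL peptide was the positive control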
* hit, by the source's call; ? = inconclusive; . = not tested or not shown; [ ] = remark or other dose.

No.	Molecule	TRPML1 agonist	ClpP mod	TRPML1 blocker	gsp agonist	gsp antagonist	Menin-MLL FL inh
1	CCC(NC(=O)Nc1cc(Cl)ccc1OC)c1c(-n2cccc2)sc2c1CCN(C)C2 (configuration not stated)	0.4	-5.2%	11	.	.	.
2	CN(C)S(=O)(=O)c1ccc(N=Cc2c(C(F)(F)F)[nH]n(C)c2=O)cc1	-0.3	1.1%	14	-9%	8%	1.4
3	CC1=C(C(=O)N(C)C)CC(CC(=O)NCCCN(C)C)C(=O)N1CCCN1CCCC1=O (configuration not stated)	0.3	-1.3%	2	.	.	.
4	O=C(CSc1ccc(-c2ccco2)nn1)Nc1ccc(F)cc1	-0.9	0.6%	-6	-4%[15.4 µM]	-2%	.
5	Cn1nc(-c2ccc(Cl)cc2)c2cc(C(=O)NC3CC3)sc21	0.9	?	-5	1%	0%	0.9
6	CN1C(=O)c2ccc(Oc3ccccc3)cc2C1=O	2.0	.	6	4%[15.4 µM]	-11%	.
7	COc1ccccc1NS(=O)(=O)c1cccc(C(=O)NNC(=O)c2ccc(=O)[nH]c2)c1	1.5	0.2%	-9	-7%	-22%	.
8	COc1cc(C2Nc3ccccc3NC3=C2C(=O)CC(c2ccc(OC)c(OC)c2)C3)ccc1O (configuration not stated)	0.6	.	-5	4%[15.4 µM]	-28%	-1.2
9	COCCCN(CC(=O)Nc1ccc(N2CCOCC2)cc1)S(=O)(=O)c1ccccc1	0.6	-0.1%	5	9%[15.4 µM]	8%	-1.0
10	c1ccc2[nH]c(SCc3cn4cccnc4n3)nc2c1	-0.1	-1.5%	-22	-5%[15.4 µM]	8%	0.8
11	COc1cc2ccccc2cc1C(=O)Nc1ccc2oc(-c3ccc(Cl)cc3)nc2c1	0.1	4.3%	-11	.	.	.
12	COc1cccc(CN(C)C(=S)Nc2ccc(C)c(C)c2)c1	1.3	-2.7%	-10	3%[15.4 µM]	-8%	0.4
13	CCN1CCc2c(sc(-n3cccc3)c2C(C)NC(=O)Nc2cc(Cl)c(OC)cc2OC)C1 (configuration not stated)	0.1	-1.4%	-1	.	.	.
14	Cc1ccc2cccc(NC(=O)c3ccc(-c4cccc(Cl)c4Cl)o3)c2n1	0.4	-4.2%	-2	.	.	.
15	CC(=O)N/C(=N/c1nc(C)cc(C)n1)Nc1cccc(C)c1C	-1.1	-0.4%	-19	-9%[15.4 µM]	3%	9.5
16	Cc1cc(C)cc(OCCn2ccnc2)c1	-0.1	0.9%	-1	-2%	2%	1.3
17	COc1ccc(C(=O)COC(=O)/C=C/c2ccccc2[N+](=O)[O-])cc1	-0.2	1.4%	-9	10%	4%	.
18	Nc1ccc(S(=O)(=O)NC2=NCCCCC2)cc1N	0.6	.	13	8%[15.4 µM]	-7%	-11
19	Cc1ccc(S(=O)(=O)CC(=O)c2ccccc2)cc1	-0.6	0.5%	0	-4%	6%	2.2
20	Cc1cc(N(C)C)ccc1[N+](=O)[O-]	0.0	0.3%	-8	-34%[inhibitor]	-13%	-3.1
21	COc1ccc(CNC(=O)C2CCN(S(=O)(=O)c3ccc(Br)s3)CC2)cc1	1.9	.	23	12%	-16%	1.0
22	COCCN(C(=O)CSc1nc(-c2ccccc2)cn1N)c1c(N)n(Cc2ccccc2)c(=O)[nH]c1=O	0.0	-1.6%	12	1%	11%	.
23	Cc1[nH]c(C)c(S(=O)(=O)NCc2ccccc2Cl)c1C(=O)N1CCCC1	0.3	-0.7%	-3	-23%	9%	-2.9
24	COC(=O)CCC(=O)OC1(C)C(=O)C2=CN(Cc3ccccc3)C(c3ccc(OC)cc3)=CC2=C(Br)C1=O (configuration not stated)	0.4	1.2%	11	.	-20%	1.9[11.7 µM]
25	CCOC(=O)c1ccc(NC(=O)CCc2c(C)nc3c(c(C)nn3C(C)(C)C)c2C)cc1	3.6	?	15	.	.	.

Record cards, as listed above:
O=C(CSc1ccc(-c2ccco2)nn1)Nc1ccc(F)cc1 across the screens: TRPML1 agonist = -0.9; ClpP mod = 0.6%; TRPML1 blocker = -6; gsp agonist = -4%[15.4 µM]; gsp antagonist = -2%; Menin-MLL FL inh = .
c1ccc2[nH]c(SCc3cn4cccnc4n3)nc2c1 across the screens: TRPML1 agonist = -0.1; ClpP mod = -1.5%; TRPML1 blocker = -22; gsp agonist = -5%[15.4 µM]; gsp antagonist = 8%; Menin-MLL FL inh = 0.8

Continued.
No.	Molecule	TRPML1 agonist	ClpP mod	TRPML1 blocker	gsp agonist	gsp antagonist	Menin-MLL FL inh
26	COc1ccc(NC(=O)CCCn2c(=O)c3sccc3n(Cc3ccc(C)cc3)c2=O)cc1	2.2	1.3%	8	-4%	12%	4.0
27	Cc1cn([C@H](C(=O)NCCCCCCCCCCC(=O)N2CCNCC2)[C@@H](C)O)nn1	0.8	-4.2%	32	.	14%	.
28	COc1ccc([C@H]2N[C@]3(CCCN(Cc4ccco4)C3=O)[C@H]3C(=O)N(C)C(=O)[C@@H]23)cc1	0.3	-2.6%	-4	-8%	.	.
29	CC(=O)N=c1n(C)c2ccccc2n1CCOc1ccccc1	-0.4	-0.4%	6	11%	0%	-0.7
30	COc1ccc2[nH]c(=O)c(CN(Cc3cccs3)Cc3nnnn3Cc3ccccc3)cc2c1	-0.3	?	-10	0%	-11%	5.5
31	CCOc1ccc(C(=O)Nc2ccc(-n3nncc3-c3ccc(OC)cc3)cc2)cc1	2.4	-2.1%	56	.	.	.
32	Cc1ccc(Cc2c(-c3cccc(Cl)c3)nc3c(C)cc(Br)cn23)cc1	-0.2	-3.9%	21	.	.	.
33	CNC(=S)/N=C(\Nc1ccc(C)cc1)c1ccccc1	0.2	.	-13	3%[15.4 µM]	-8%	3.0
34	COc1ccc(S(=O)(=O)N2CCCC(C(=O)NCc3cccnc3)C2)cc1OC (configuration not stated)	0.5	.	-9	-4%[15.4 µM]	10%	.
35	Cc1ccc(-c2nc(CN(C)C3CCOC3)c(C)o2)s1 (configuration not stated)	-0.8	-16%	1	6%	9%	0.3
36	Cc1cc(C)cc(N2C(=O)CC(Sc3ncn[nH]3)C2=O)c1 (configuration not stated)	-0.6	.	-3	28%	8%	0.4
37	COCCS(=O)(=O)N(Cc1ccc(Br)cc1)[C@@H](C)C(=O)OC	-0.9	-1.5%	-16	.	11%	.
38	COc1ccc(C[C@H]2CN3C(=NC[C@@H]3Cc3ccc(O)cc3)N2C[C@H](C)NC(=O)CCC2CCCCC2)cc1	1.3	0.0%	15	.	-2%	3.4
39	CN=C1c2cc3cc(OC)ccc3n2CCN1C	-0.1	-1.5%	12	-3%	10%	0.6
40	COc1ccc(CCC(C)NC(=O)CCc2ccccc2)c(OC)c1 (configuration not stated)	3.5	.	-27	8%	3%	3.9
41	CCOc1ccccc1OCC(=O)OCC(=O)c1c(N)n(CC(C)C)c(=O)n(C)c1=O	-0.9	0.1%	3	-2%	35µM*	.
42	COc1ccc(/C(N)=N/OC(=O)CN(C)S(=O)(=O)c2ccc(C)cc2)cc1	3.2	-1.9%	21	-1%	?	0.6
43	Cc1nc(-c2ccncc2)nc(NCCNc2ccc(C(F)(F)F)cn2)c1Cl	0.2	-6.0%	21	-21%[15.4 µM]	-10%	2.5
44	Cc1ccccc1NC(=O)C(=O)c1cn(C)c2ccccc12	0.1	1.9%	14	14%	1%	0.0
45	COc1ccc(NC(=O)N(C)C[C@H]2Oc3ccc(NC(=O)C4CC4)cc3C(=O)N([C@H](C)CO)C[C@@H]2C)cc1	-0.4	-1.7%	-6	.	8%	.
46	O=C(c1ccc2c(c1)N(Cc1cccc(Cl)c1)C(=O)c1ccccc1S2(=O)=O)N1CCc2ccccc21	1.9	-3.6%	29	.	.	.
47	Cc1nc(N2CCCCC2C)c2c(C)c(C(=O)Nc3cccc(C(F)(F)F)c3)sc2n1 (configuration not stated)	2.4	.	-21	-3%[15.4 µM]	-16%	0.1
48	COc1ccc(C(=O)c2ccc(OC)c(OC)c2)cc1OC	-0.8	0.2%	2	20%	-5%	2.5
49	Nc1c(Cl)cnc(C(Cl)(Cl)Cl)c1Cl	0.2	.	12	-2%[15.4 µM]	20%	1.1
50	Cn1c(=O)c2c(SCC(N)=O)nc(CC(C)(C)C)nc2n(C)c1=O	-0.5	0.2%	-23	19%	-4%	3.7

(more compounds)
No.	Molecule	TRPML1 agonist	ClpP mod	TRPML1 blocker	gsp agonist	gsp antagonist	Menin-MLL FL inh
51	CCCc1nc(NCc2ccccn2)c2nnn(Cc3ccccc3F)c2n1	3.4	-2.3%	19	-1%	-4%	1.4
52	CN(C(=O)CN1C(=O)/C(=C/c2ccc(Cl)cc2)SC1=S)C1CCS(=O)(=O)C1 (configuration not stated)	-0.4	-1.2%	-17	?	3%	.
53	Cc1ccccc1Cn1c(=O)[nH]c2ccccc21	-0.5	1.1%	-4	-11%	-11%	0.6
54	CC(CN1CCCCC1)OC(=O)c1cccc(F)c1 (configuration not stated)	0.3	.	1	-52%[inhibitor]	9%	3.1
55	O=[N+]([O-])c1ccc(N2CCN(c3ccccc3O)CC2)c(Cl)c1	0.7	1.3%	36	6%	?	-8.7
56	CCn1c(CNC(=O)Cc2ccc(OC)cc2)nnc1SCCOc1ccccc1	1.0	-0.9%	-2	-38%[inhibitor]	-23%	1.1
57	CC1CCCC(NC(=O)C2CCN(S(=O)(=O)N3CCCCC3)CC2)C1C (configuration not stated)	-0.6	-1.3%	-16	0%	-4%	2.7
58	CCC(C(=O)NCc1ccco1)N(C(=O)CNS(=O)(=O)c1ccc(C)cc1)c1ccccc1F (configuration not stated)	1.7	.	1	0%[15.4 µM]	-10%	-0.1
59	Cc1ccc(S(=O)(=O)N2CCN(CC(=O)Nc3ccccc3Cl)CC2)cc1	0.1	1.3%	-7	2%	-4%	.
60	S=C(NCc1ccc2c(c1)OCO2)NCc1ccco1	-0.4	.	11	6%[15.4 µM]	.	?
61	Cc1cc(C(=O)CN2C(=O)NC3(CCCc4ccccc43)C2=O)c(C)n1Cc1ccccc1 (configuration not stated)	2.3	3.2%	32	17%	-8%	-0.1
62	O=C(NNC(=O)c1ccc2ccccc2c1)c1cccc(Cl)c1	0.5	.	10	-14%	10%	.
63	CCn1cc(C(=O)N(C)Cc2ccc(OC(F)F)cc2)c(=O)c2ccc(C)nc21	-0.5	-19%	0	?	-3%	0.6
64	CC1CCC2C(=O)N(c3ccc(NC4CCCCC4)c([N+](=O)[O-])c3)C(=O)C2C1 (configuration not stated)	0.5	0.5%	5	4%	2%	3.9
65	COC(=O)c1ccc(COC(=O)c2ccccc2OC)cc1	1.9	-12%	25	-44%	-11%	0.1
66	Cc1cc(C)n(-c2cc(N3CCN(C(=O)c4cccc(F)c4)CC3)ccc2[N+](=O)[O-])n1	0.2	-0.3%	19	-34%[inhibitor]	-4%	1.6
